Env fusion inh: inhibitors of HIV-1 Env-driven cell-cell fusion, primary screen, HeLa-JRFL effector, CEM21 target cells, luciferase; hit rate 1.1% among 360,000; inhibition, % at 12.3 µM; AID 651610, 2012;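 active means mean replicate inhibition score of at least 50 and every replicate individually at or above 50; inconclusive means only one of the two criteria met; inactive means mean below 50 and not all replicates reaching 50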;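 further: 0% = plate neutral controls and 100% = maraviroc near 300 nM; one replicate is shown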
CSC inhib: cancer stem cell viability inhibitors, primary screen, luminescence | cancer stem cell-like cells viability | inhibition, % at 7.5 µM | hit rate 1.1% among 300,000 | AID 2717, 2010;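 active means mean at 75% or more and at least half the replicates too; inconclusive means mean and replicates disagree; tested in HMLE shEcad cells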;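 further: 0% = median of negative and 100% = median of positive control wells; the first replicate is given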
Rce1 inh: yeast Rce1p protease inhibitors, primary screen, biochemical, fluorescence, cell-free homogeneous; CAAX prenyl protease 2 (Saccharomyces cerevisiae (strain ATCC 204508 / S288c)), Q03530; yeast membranes, quenched prenylated peptide cleavage fluorescence; calls only; hit rate 0.27% among 290,000; AID 2563, 2010;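 active means fall in fluorescence gain of 50% or more versus controls, with final raw signal at or below 3038400; inconclusive means same 50% fall but final raw signal above 3038400; inactive means fall in fluorescence gain under 50%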;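 further: plate controls were neutral control wells for no effect and wells lacking membranes for full effect; tested at 10 µM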
eIF4H inh: human eIF4H binding inhibitors, primary screen, translation initiation inhibitor project, biochemical, uHTS, fluorescence polarization | eIF4H fluorescence polarization binding assay | inhibition, % at 35 µM | hit rate 0.94% among 290,000;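 active means 50% or more with normal probe brightness, or confirmed in later tests; inconclusive means above 50% with abnormal brightness, or retests that disagree; inactive means below 50% or failed in later tests; about a fifth of its hits are not listed in these tables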;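 further: calls also rest on retests at 20 µM and on dose response follow-up; 0% = protein and probe with vehicle and 100% = probe without protein; strong numbers were not always called active; many hits fall short of the cut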
MT1-MMP act inh: blockers of MT1-MMP proenzyme processing, primary screen, HT1080 RFP-PRO-GFP cells, GFP/RFP fluorescence; GFP/RFP ratio fluorescence, overnight; percent of plate control window, DMSO zero; Matrix metalloproteinase-14 (Homo sapiens), P50281; AID 651647, 2012; GFP/RFP ratio change, % at 20 µM; hit rate 0.061% among 360,000;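 active means GFP/RFP ratio change of at least 30% with cell ATP level not reduced by more than half and red fluorescence within 50% of control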; further: strong numbers were not always called active
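Assay system – RFP-PRO-GFP reporter HT1080 cells · Compound dosing – single dose of 20 µM compound, 1% DMSO final · Incubation – overnight compound exposure at 37 °C · Measure – GFP/RFP fluorescence ratio · Benchmarks – DMSO wells and RFP-L50D-GFP cells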
PABP FP inh: PABP poly(A) RNA binding inhibitors, primary screen, biochemical, fluorescence polarization, uHTS; Polyadenylate-binding protein 1 (Homo sapiens), P11940; inhibition, % at 35 µM; hit rate 1% among 290,000; AID 2014, 2009;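 active means 50% or more with normal probe brightness, or confirmed in later tests; inconclusive means above 50% with abnormal brightness, or retests that disagree; inactive means below 50% or failed in later tests; about a fifth of its hits are not listed in these tables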;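 further: calls also rest on retests at 20 µM and on dose response follow-up; controls were probe without protein and protein plus probe with vehicle; some compounds called inactive have numbers as strong as hits; many hits fall short of the cut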
Target sequence (P11940 whole entry, looked up): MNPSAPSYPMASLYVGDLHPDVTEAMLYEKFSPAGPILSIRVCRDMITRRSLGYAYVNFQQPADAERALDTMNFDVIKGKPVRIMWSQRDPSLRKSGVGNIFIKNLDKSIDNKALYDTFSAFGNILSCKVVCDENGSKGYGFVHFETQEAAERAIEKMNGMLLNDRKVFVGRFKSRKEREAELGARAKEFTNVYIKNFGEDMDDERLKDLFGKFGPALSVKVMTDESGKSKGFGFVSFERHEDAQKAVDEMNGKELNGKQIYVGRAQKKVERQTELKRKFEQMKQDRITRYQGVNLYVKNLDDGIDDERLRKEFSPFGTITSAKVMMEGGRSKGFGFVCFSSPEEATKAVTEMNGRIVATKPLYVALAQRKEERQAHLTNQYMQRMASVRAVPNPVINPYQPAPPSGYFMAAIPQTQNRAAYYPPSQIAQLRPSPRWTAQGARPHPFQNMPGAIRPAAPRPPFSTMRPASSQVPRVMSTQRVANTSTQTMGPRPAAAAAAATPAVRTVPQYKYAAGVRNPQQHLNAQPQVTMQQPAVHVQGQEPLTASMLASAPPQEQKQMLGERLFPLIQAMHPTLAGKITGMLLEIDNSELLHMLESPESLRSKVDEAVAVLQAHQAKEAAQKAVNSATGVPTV
UUG fidelity: modulators of yeast start codon fidelity, primary screen, whole organism, S. cerevisiae, single point, plate reader | S. cerevisiae UUG-firefly luciferase reporter, luminescence/redox ratio | activity score, % at 18.7 µM | hit rate 0.13% among 350,000 | AID 602363, 2012;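 active means replicate mean at a twofold rise or more, about +100% in these data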;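 further: firefly luciferase made from a UUG start codon reports start codon fidelity; reporter light over untreated wells divided by growth signal over untreated wells; some hits fall short of that in this replicate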
MT1-MMP act inh RFP: also measured in MT1-MMP act inh; calls as there; RFP signal change, %; measured here: RFP expression control read;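 0 = vehicle wells; hits needed this value within 50% of zero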
Numbers without * were called inactive; i = inactive; ? = inconclusive; nt = no result given; [ ] = another dose, or the depositor's remark.

Second line of a record – Env fusion inh, CSC inhib, Rce1 inh, eIF4H inh, MT1-MMP act inh, MT1-MMP act inh RFP, PABP FP inh, UUG fidelity
CC1=NOC(=O)/C1=C/c1ccc(-c2ccc(Cl)cc2)o1
 : nt, 26, nt, 8, -6, 5, 7, -7
COCC(=O)NCc1ccc2c(c1)OCO2
 : -23, -16, i, 2, -2, 6, -5, -18
CCC1(CC)NC(=O)N(CC(=O)OC(C)C(=O)Nc2cc([N+](=O)[O-])ccc2OC)C1=O (stereo not given)
 : -222, 7, i, 4, nt, nt, 16, 9
COC(=O)c1cc(OC)c(OC)cc1NC(=O)c1c(-c2ccccc2Cl)noc1C
 : 18, 12, i, 1, -1, -8, 13, -16
COC(=O)C[C@@H]1CC[C@H](NC(=O)c2ccccc2)[C@@H](CO)O1
 : -17[16.7 µM], nt, nt, nt, 1, 4, nt, -11
COc1cc(OC)c(-c2sc(Nc3ccccc3)n[n+]2-c2ccc(F)cc2)cc1OC
 : -3, -12, i, -2, -1, -1, 4, -12
O=C(NCCNC(=O)c1cc(Cl)ccc1Cl)c1ccco1
 : 1, -7, i, 6, 4, 4, -14, -24
CCc1ccc(C2=NN(CCC(=O)NC3CCCCCC3)C(=O)CC2)cc1
 : 5, 2, i, 4, 1, 0, -1, 0
O=C(c1cc2ccccc2o1)N1CCN(c2ccccc2Cl)CC1
 : -460, -1, i, 1, 7, 2, 2, -6
COc1ccc(OC(F)(F)F)cc1CC1(C)C(=O)Nc2ccc(S(=O)(=O)NC3CCCCC3)cc21 (stereo not given)
 : 88*, nt, nt, nt, -17, -15, nt, -12
Cc1ccc(CCN2CC(C(=O)NC3CCC(C)CC3)CC2=O)cc1 (stereo not given)
 : 6, nt, nt, nt, 0, 2, nt, -19
CCC(=O)Nc1ccc(N2CCN(S(C)(=O)=O)CC2)cc1
 : -1, -7, i, 5, 4, 6, -6, nt
C=C(C)CSc1nnc(CCCCCNC(=O)OC(C)(C)C)o1
 : 2, 4, i, 6, 1, -7, 11, 0
CCN(CC)S(=O)(=O)c1ccc2c(c1)nc(SCC(N)=O)n2-c1ccc(OC)cc1
 : nt, -20, i, 1, 9, -7, -2, -12
COc1cc(CCC(=O)N2CCN(S(=O)(=O)c3ccc(C)cc3)CC2)cc(OC)c1OC
 : 45, nt, nt, nt, -10, -6, nt, 0
CCOc1ccc(C(C(=O)NC2CCCC2)N(CCOC)C(=O)CNC(=O)c2ccco2)cc1 (stereo not given)
 : -1, -6, i, -9, 1, 0, 6, -12
COc1ccc(NC(=O)CSc2cc(C)ccc2C)cn1
 : -5, 2, i, 7, 3, 3, 10, nt
Cc1nc([N+](=O)[O-])cn1CC(=O)Nc1ccc(F)c(Cl)c1
 : 1, -4, nt, -4, 3, 4, 0, -12
CCCCOc1ccc(C(=O)NCC(=O)NC2CCCCC2)cc1
 : -1, nt, nt, nt, 0, 0, nt, -1
O=C(C1=C(O)C(=O)N(c2ncccn2)C1c1ccc(Cl)cc1)c1ccco1 (stereo not given)
 : nt, -10, i, 12, -17, -1, 25, nt
COc1cccc(NC(=S)NNC(=O)Cn2nc([N+](=O)[O-])cc2C)c1
 : 2, 4, i, 17, 4, 3, 0, nt
O=C(COc1ccccc1)N(Cc1ccccc1)c1nc(-c2ccccc2)cs1
 : -1, 4, i, -8, 0, 1, -1, -8
CC(=O)NNC(=O)c1cc2c3ccccc3n(C)c2s1
 : -6, -3, i, -2, -2, 5, -7, nt
CCCNc1ncnc2sc(C)c(C)c12
 : nt, -8, nt, -3, -4, -14, 5, -12
O=C(NCCOc1ccccc1)c1ccccc1NC(=O)C1CCCO1 (stereo not given)
 : -20, -8, i, 2, 0, -1, 1, -8
CCOC(=O)c1c(NC(=S)Nc2ccccc2)sc2c1CCN(C)C2
 : nt, 2, i, 2, -14, 0, 2, 2
C[C@@]12C(C[C@H](O)[C@@]34C[C@@H](CCC13)[C@@H](CO)C4=O)[C@](C)(C(=O)O)CC[C@@H]2O (stereo not given in full)
 : -19, nt, nt, nt, -2, 3, nt, -11
CCC/C(O)=C1\C(=O)CCCC1=NCCc1c(C)[nH]c2ccc(OC)cc12
 : -5, 4, i, -4, -4, -1, -1, -13
CCOC(=O)c1c(C)[nH]c(C(=O)OCC(=O)N2CC(C)OC(C)C2)c1C (stereo not given)
 : -42, 1, i, 1, 2, -2, 9, -2
O=C(COc1ccc2ccccc2c1CN1CCOCC1)N1CCc2ccccc21
 : -193, nt, i, 3, 14, -6, -6, -4

Ordered by SMILES length (rising): part of the list above
Second line of a record – Env fusion inh, CSC inhib, Rce1 inh, eIF4H inh, MT1-MMP act inh, MT1-MMP act inh RFP, PABP FP inh, UUG fidelity
COc1ccc(NC(=O)CSc2cc(C)ccc2C)cn1
 : -5, 2, i, 7, 3, 3, 10, nt
CC(=O)NNC(=O)c1cc2c3ccccc3n(C)c2s1
 : -6, -3, i, -2, -2, 5, -7, nt
CCCCOc1ccc(C(=O)NCC(=O)NC2CCCCC2)cc1
 : -1, nt, nt, nt, 0, 0, nt, -1
C=C(C)CSc1nnc(CCCCCNC(=O)OC(C)(C)C)o1
 : 2, 4, i, 6, 1, -7, 11, 0
O=C(c1cc2ccccc2o1)N1CCN(c2ccccc2Cl)CC1
 : -460, -1, i, 1, 7, 2, 2, -6
CCOC(=O)c1c(NC(=S)Nc2ccccc2)sc2c1CCN(C)C2
 : nt, 2, i, 2, -14, 0, 2, 2
O=C(COc1ccccc1)N(Cc1ccccc1)c1nc(-c2ccccc2)cs1
 : -1, 4, i, -8, 0, 1, -1, -8
CCC/C(O)=C1\C(=O)CCCC1=NCCc1c(C)[nH]c2ccc(OC)cc12
 : -5, 4, i, -4, -4, -1, -1, -13
CCN(CC)S(=O)(=O)c1ccc2c(c1)nc(SCC(N)=O)n2-c1ccc(OC)cc1
 : nt, -20, i, 1, 9, -7, -2, -12
CCC1(CC)NC(=O)N(CC(=O)OC(C)C(=O)Nc2cc([N+](=O)[O-])ccc2OC)C1=O (stereo not given)
 : -222, 7, i, 4, nt, nt, 16, 9

Later entries.
Field names – A = Env fusion inh; B = CSC inhib; C = Rce1 inh; D = eIF4H inh; E = MT1-MMP act inh; F = MT1-MMP act inh RFP; G = PABP FP inh; H = UUG fidelity
O=C1C=C(Nc2ccc(Cl)cc2Cl)CC(c2ccco2)C1 (stereo not given)
  A: -1; B: 49; C: i; D: 20; E: -4; F: -12; G: -7; H: nt
CCOc1ccc(CN2C(=O)CC(=O)N(S(=O)(=O)c3ccc(OCC)cc3)C2=O)cc1
  A: -10; B: -15; C: i; D: ?; E: -6; F: 9; G: ?; H: 1
O=C(O)c1sccc1SCc1ccc(Cl)c(Cl)c1
  A: -6; B: 24; C: i; D: 0; E: 4; F: 6; G: -8; H: -24
Cc1ccc(C)c(NC(=S)NCCc2c[nH]c3ccccc23)c1
  A: 15; B: 7; C: i; D: -7; E: 3; F: -11; G: -4; H: -25
Cc1ccc(-c2nc3ccccc3o2)cc1NC(=S)NC(=O)/C=C/c1ccco1
  A: nt; B: -11; C: i; D: -4; E: -8; F: -3; G: 8; H: -11
Cc1cc(OCC(=O)N(C)Cc2ccccc2)cc(C)c1Cl
  A: 5; B: 10; C: i; D: 7; E: -1; F: -4; G: 3; H: -8

Screens from PubChem.

These rows are one share of the data (hit frequency here may not be typical).
